Assay outcomes: PubChem, several laboratories
eIF4H FP inh: inhibitors of RNA binding by human eIF4H; Q15056; eIF4H fluorescence polarization binding assay; inhibition, % at 35 µM; 290,000 tested, 0.94% active; AID 2012;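 active means 50% or more with normal probe brightness, or confirmed in later tests; inconclusive means above 50% with abnormal brightness, or retests that disagree; inactive means below 50% or failed in later tests; about a fifth of its hits are not listed in these tables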;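 further: calls also rest on retests at 20 µM and on dose response follow-up; 0% = protein and probe with vehicle and 100% = probe without protein; strong numbers were not always called active; many hits fall short of the cut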
Env fusion inh: inhibitors of HIV Env-mediated cell fusion; HeLa-JRFL Env/CEM21 cell fusion, luciferase; inhibition, % at 12.3 µM; 360,000 tested, 1.1% active;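 active means mean replicate inhibition score of at least 50 and every replicate individually at or above 50; inconclusive means only one of the two criteria met; inactive means mean below 50 and not all replicates reaching 50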;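 further: 0% = plate neutral controls and 100% = maraviroc near 300 nM; one replicate is shown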
CSC inhib: blocks cancer stem cells; AID 2717; 300,000 tested, 1.1% active; inhibition, % at 7.5 µM; cancer stem cell-like cells viability, luminescence;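 active means mean at 75% or more and at least half the replicates too; inconclusive means mean and replicates disagree; tested in HMLE shEcad cells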;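 further: 0% = median of negative and 100% = median of positive control wells; the first replicate is given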
Yeast UUG start: alters start codon recognition fidelity in yeast; activity score, % at 18.7 µM; 350,000 tested, 0.13% active; S. cerevisiae UUG-firefly luciferase reporter, luminescence/redox ratio;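 active means replicate mean at a twofold rise or more, about +100% in these data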;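 further: firefly luciferase made from a UUG start codon reports start codon fidelity; reporter light over untreated wells divided by growth signal over untreated wells; some hits fall short of that in this replicate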
Rce1 inh: blocks yeast Ras-converting enzyme; Q03530; yeast membranes, quenched prenylated peptide cleavage fluorescence; calls only; 290,000 tested, 0.27% active; AID 2563;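 active means fall in fluorescence gain of 50% or more versus controls, with final raw signal at or below 3038400; inconclusive means same 50% fall but final raw signal above 3038400; inactive means fall in fluorescence gain under 50%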;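 further: plate controls were neutral control wells for no effect and wells lacking membranes for full effect; tested at 10 µM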
MT1-MMP act inh: MT1-MMP (human) activation inhibition; GFP/RFP ratio change, % at 20 µM; P50281; AID 651647; 360,000 tested, 0.061% active; HT1080 RFP-PRO-GFP cells, GFP/RFP ratio fluorescence, overnight; percent of plate control window, DMSO zero;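 active means GFP/RFP ratio change of at least 30% with cell ATP level not reduced by more than half and red fluorescence within 50% of control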; further: strong numbers were not always called active
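Assay system – RFP-PRO-GFP reporter HT1080 cells · Compound dosing – single dose of 20 µM compound, 1% DMSO final · Incubation – overnight compound exposure at 37 °C · Measure – GFP/RFP fluorescence ratio · Benchmarks – DMSO wells and RFP-L50D-GFP cells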
PABP polyA inh: blocks human PABP binding to poly(A) RNA; inhibition, % at 35 µM; 290,000 tested, 1% active; fluorescence polarization; AID 2014; P11940;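 active means 50% or more with normal probe brightness, or confirmed in later tests; inconclusive means above 50% with abnormal brightness, or retests that disagree; inactive means below 50% or failed in later tests; about a fifth of its hits are not listed in these tables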;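 further: calls also rest on retests at 20 µM and on dose response follow-up; controls were probe without protein and protein plus probe with vehicle; some compounds called inactive have numbers as strong as hits; many hits fall short of the cut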
Target sequence (P11940 whole entry, looked up): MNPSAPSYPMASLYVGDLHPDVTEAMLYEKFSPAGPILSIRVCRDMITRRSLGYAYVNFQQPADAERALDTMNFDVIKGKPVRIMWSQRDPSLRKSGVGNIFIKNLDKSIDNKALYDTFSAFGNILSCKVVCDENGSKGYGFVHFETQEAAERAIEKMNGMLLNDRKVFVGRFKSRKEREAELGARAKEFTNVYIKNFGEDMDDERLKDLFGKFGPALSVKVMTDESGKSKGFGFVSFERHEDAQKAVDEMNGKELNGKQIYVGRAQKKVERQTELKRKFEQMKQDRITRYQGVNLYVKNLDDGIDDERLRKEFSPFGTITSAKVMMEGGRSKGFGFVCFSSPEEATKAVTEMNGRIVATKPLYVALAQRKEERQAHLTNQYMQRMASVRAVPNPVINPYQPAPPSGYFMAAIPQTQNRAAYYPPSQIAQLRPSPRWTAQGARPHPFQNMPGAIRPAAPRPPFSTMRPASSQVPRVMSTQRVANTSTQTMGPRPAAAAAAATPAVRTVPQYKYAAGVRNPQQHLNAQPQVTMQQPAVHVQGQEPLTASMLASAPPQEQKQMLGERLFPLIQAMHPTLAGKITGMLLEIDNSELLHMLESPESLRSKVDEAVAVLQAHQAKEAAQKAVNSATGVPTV
eIF4H FP inh retest: recorded beside eIF4H FP inh, whose call it bears; inhibition, %; compound at 20 µM; confirmation average;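 mean of two retest wells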
PABP polyA inh retest: also measured in PABP polyA inh; calls as there; inhibition, %; compound at 20 µM; confirmation repeats;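 mean of two retest wells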
MT1-MMP act inh RFP: further read-out of MT1-MMP act inh, marked with its call; RFP signal change, %; measured here: RFP expression control read;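 0 = vehicle wells; hits needed this value within 50% of zero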
Active calls of the source: *; i = inactive; ? = inconclusive; . = not tested or not shown. An excerpt; count on the stated rates, not on these rows.

SMILES | eIF4H FP inh | Env fusion inh | CSC inhib | Yeast UUG start | Rce1 inh | MT1-MMP act inh | MT1-MMP act inh RFP | PABP polyA inh | others
O=c1[nH]cnc(O)c1C1C=CC=CC=C1 | . | -34.3 | . | -23.2 | . | -5.9 | 4.4 | .
C[N+](C)(C)CCOP(=O)(O)OP(=O)([O-])OC[C@H]1O[C@@H](n2ccc(N)nc2=O)[C@H](O)[C@@H]1O | -2.7 | . | 0.3 | 13.3 | i | -0.1 | 2.2 | -8.5
O=C(CN1C(=O)COc2ccccc21)NC1CCCC1 | 4.3 | -6.4 | 10.3 | -18.2 | i | 1.2 | 3.0 | -2.8
CCCCCCc1cc2cc(C(N)=O)c(=N)oc2cc1O | 96.2* | . | 52.5 | . | i | . | . | 107.8*
CCOC(=O)C1=C(C)NC(=O)NC1/C(C)=C/c1ccccc1 (stereo not drawn) | 3.5 | . | -5.9 | -8.3 | i | -7.0 | -3.4 | -3.5
COc1cc(OC)nc(NC(=O)COC(=O)C2CCCCC2)n1 | -9.1 | -12.3 | 3.4 | -5.8 | i | 2.0 | 12.9 | 2.1
C=CCN(CC=C)Cc1cc(=O)n2c(-c3ccccc3)csc2n1 | 14.5 | -0.2 | -13.2 | -12.0 | i | -1.8 | 1.4 | 3.5
CSc1cccc(NC(=S)N(CCCN2CCC(C)CC2)Cc2cccs2)c1 | -6.7 | 17.7 | 30.8 | -12.1 | i | -0.2 | 0.5 | 5.8
O=C1Nc2cccnc2Sc2ccccc21 | -9.9 | . | -12.7 | -8.2 | i | 0.8 | 0.0 | 6.1
CC(=O)/C(N=Nc1cc2c(c([N+](=O)[O-])c1C)C(C)(C)CC2(C)C)=C(\C)O | -16.6 | 30.1 | . | -15.0 | i | 1.3 | -6.6 | -5.7
CC(C)Oc1ccc(C(=O)NC2CCCCC2)cc1 | -9.3 | . | -7.5 | -20.2 | i | -1.6 | 0.4 | 1.2
O=C(OCC(=O)N(Cc1ccccc1)C1CCS(=O)(=O)C1)c1cc2c(s1)CCCC2 (stereo not drawn) | -1.7 | 8.9 | -9.3 | . | i | 4.2 | 5.6 | -9.1
CCN(CC)C(=O)Cn1cc(C(=O)C(=O)N2CCN(c3ccc([N+](=O)[O-])cc3)CC2)c2ccccc21 | 0.4 | 7.9 | 6.6 | -9.7 | i | 0.0 | -8.7 | 5.2
CC(C)Cc1ccc(CN2CCCC(NC(=O)c3ccoc3)C2)cc1 (stereo not drawn) | 7.8 | 9.1 | -9.0 | -9.1 | i | 6.2 | 1.7 | 8.2
Cn1c(N)c(C(=O)COC(=O)c2ccc(Cl)c(S(=O)(=O)N3CCCC3)c2)c(=O)n(C)c1=O | -2.2 | 28.2 | 4.7 | 0.0 | i | 4.4 | -1.5 | 7.5
O=C(O)c1cc(-c2cccc3ccccc23)nc2ccccc12 | 32.2 | -7.5 | 2.1 | -8.2 | i | 1.2 | -0.7 | 35.3
CNc1ccc(/C=C\CCCO)cn1 | . | -27.5 | . | -14.0 | . | 2.4 | 7.5 | .
O=C(CCN1CCOCC1)NNC(=S)NC(=O)c1ccc(Br)cc1 | 39.9 | -10.1 | 5.5 | . | i | 6.7 | 8.7 | 7.5
CCOc1ccccc1NC(=O)CCS(=O)(=O)c1cccc2nsnc12 | 5.7 | -6.3 | 3.7 | 6.2 | i | 4.7 | 6.9 | 1.0
COc1cc(/C=C/C(=O)NCC2CCCCC2)cc(OC)c1OC | -21.4 | 0.7 | -7.3 | -7.8 | i | 2.5 | 4.2 | -10.4
O=C(NCCc1csc(-c2cccnc2)n1)c1ccccc1Br | -9.4 | 16.1 | 7.8 | -3.0 | i | -9.0 | -2.4 | 4.4
O=C(N/N=C/c1cccn1-c1ccccc1)c1ccncc1 | 3.6 | -5.9 | -13.5 | . | i | -1.7 | -0.7 | 11.7
O=C1C2CCCN2C(c2ccccc2)N1c1ccc(Cl)cc1 (stereo not drawn) | -4.7 | -5.3 | 1.6 | 3.5 | i | 4.4 | 7.6 | -2.8
O=C(O)CCCn1cc(NC(=O)COc2ccccc2[N+](=O)[O-])cn1 | -5.6 | -15.8 | 3.9 | . | i | 1.9 | 3.0 | 3.0
O=C(CN1CCN(c2ccccc2F)CC1)N1CCc2ccccc21 | -2.6 | -1.7 | -8.5 | -4.3 | i | 1.8 | -1.7 | -3.7
COc1ccc(Cl)cc1S(=O)(=O)N1CCN(C)CC1 | -20.6 | -26.5 | 5.6 | 1.0 | i | -2.1 | 0.0 | 1.9
N#CCCSCc1ccc(C(=O)O)o1 | -5.1 | -3.5 | -7.3 | -8.4 | i | 0.9 | 1.6 | -4.5
CCOC(=O)c1c(C)[nH]c(C)c1C(=O)COC(=O)c1cccc(C)c1O | -7.0 | . | 5.0 | -4.0 | i | 4.4 | -4.6 | 1.5
Cc1csc(SCC(=O)N2CCCC2)n1 | 2.0 | . | 10.7 | -13.9 | i | 5.2 | 4.6 | -12.5
CCC(C(=O)NCCCc1ccccc1)c1ccccc1 (stereo not drawn) | -12.6 | -13.6 | 10.1 | . | i | -3.2 | -1.3 | -9.6
CCc1ccc(C(=O)NNC(=O)c2ccc(=O)n(C)n2)cc1 | -9.6 | -0.5 | 2.4 | 1.2 | i | -1.9 | 4.3 | 6.2
Cc1csc(C(=O)NCC(=O)NNC(=O)c2cccc(Cl)c2)c1 | -0.7 | -21.3 | 4.9 | -7.6 | i | -1.8 | 0.0 | 4.3
COc1cc(/C=C/C(=O)O)cc(S(=O)(=O)Nc2cccc(S(=O)(=O)N3CCOCC3)c2)c1OC | -1.7 | 5.6 | -3.1 | 12.4 | i | -2.8 | 2.8 | 11.5
O=C(COC(=O)COc1ccc(Cl)cc1)NC1CCCCC1 | -7.8 | -15.1 | -6.2 | -12.5 | i | -3.2 | 0.5 | -1.5
O=C1c2cc(O)c(O)cc2S(=O)(=O)C1c1ccccc1 (stereo not drawn) | . | 6.4 | 17.4 | -3.3 | i | 3.1 | 4.0 | .
CCCOC(=S)N/C(=N\S(=O)(=O)c1ccccc1)c1ccccc1 | 6.3 | -265.8 | . | -13.1 | i | -10.0 | -2.4 | 3.5
NNC(=O)c1sc(-c2ccc(Cl)cc2)cc1N | 7.3 | -27.8 | 12.7 | -13.2 | i | -24.8 | 1.0 | ?
COc1ccc(-c2noc(CCC(=O)Nc3cc(Cl)c(OC)cc3OC)n2)cc1 | -1.1 | . | 29.7 | -7.8 | i | 1.2 | -8.3 | -4.3
CSCCNC(=O)c1ccc2nc(Cc3ccccc3F)oc2c1 | -4.5 | -10.5 | 12.0 | -7.5 | i | -5.0 | 0.9 | -8.0
CC(=O)Nc1ccc(NC(=S)NC(=O)c2ccc([N+](=O)[O-])c(C)c2)cc1 | 4.2 | 11.9 | -13.1 | . | i | -0.2 | 2.1 | 13.6

2 records picked at random from the list so far, as already listed:
SMILES | eIF4H FP inh | Env fusion inh | CSC inhib | Yeast UUG start | Rce1 inh | MT1-MMP act inh | MT1-MMP act inh RFP | PABP polyA inh | others
O=C(N/N=C/c1cccn1-c1ccccc1)c1ccncc1 | 3.6 | -5.9 | -13.5 | . | i | -1.7 | -0.7 | 11.7
NNC(=O)c1sc(-c2ccc(Cl)cc2)cc1N | 7.3 | -27.8 | 12.7 | -13.2 | i | -24.8 | 1.0 | ?

(further entries)
SMILES | eIF4H FP inh | Env fusion inh | CSC inhib | Yeast UUG start | Rce1 inh | MT1-MMP act inh | MT1-MMP act inh RFP | PABP polyA inh | others
CCOC(=O)C1=C(C)N(C)C(=S)NC1c1ccc(Cl)cc1 (stereo not drawn) | -3.8 | 32.4 | -3.7 | -27.4 | i | -2.7 | -6.8 | -8.6
Cc1ccnc2nc(C(=O)OCC(=O)Nc3ccc4c(c3)OCCO4)nn12 | . | . | -6.3 | -5.0 | . | 0.7 | 1.9 | .
CCOC(=O)c1c(C)n(C)c2ccc(OC)c(NC(=O)CCN3CCC(Cc4ccccc4)CC3)c12 | 4.4 | 6.5 | -2.4 | -6.0 | i | -1.4 | 2.8 | -7.0
CCOc1ccccc1N1CSC2=C(C#N)C(c3c(OC)ccc4ccccc34)CC(=O)N2C1 (stereo not drawn) | 15.8 | -1.9 | -17.8 | -16.2 | i | -3.4 | 2.5 | 48.2
Nc1n[nH]c(-c2ccccc2)n1 | -6.9 | -38.1 | -10.8 | -5.3 | . | -0.2 | -0.5 | 0.4
CCOc1ccc(S(=O)(=O)N2CCOCC2)cc1NC(=O)CSC(=S)N1CCCC1 | . | 12.2 | 5.6 | . | i | 2.9 | -3.4 | .
CCCNS(=O)(=O)c1ccc(OCC(=O)N2CCC(C(=O)OCC)CC2)cc1 | -10.8 | -56.5 | 8.0 | -15.0 | i | 3.6 | -1.3 | 8.0
Cc1ccc(C(C)C)c(OCC(O)CNC2CCCC2)c1 (stereo not drawn) | -8.1 | 5.8 | -16.8 | -20.3 | i | -1.7 | 0.4 | -1.3
CC/C(=N\NC(=O)c1ccc(CN(C)S(=O)(=O)c2ccc(C)cc2)cc1)c1ccc(OC(F)F)cc1 | -4.7 | . | 2.1 | -9.1 | i | 11.5 | 1.7 | -2.8
COC(=O)c1cc(S(=O)(=O)N2CCCC(C)C2)cn1C (stereo not drawn) | . | -0.7 | -3.9 | 4.5 | i | -0.4 | 0.7 | .
Cc1ccccc1N1CCN(C2CCCN(C(=O)CSc3ccccn3)C2)CC1 (stereo not drawn) | . | -15.0 | . | -40.8 | . | 1.5 | -1.8 | .
O=C(O)CCCNC(=O)/C=C/c1ccco1 | 85.0 | 18.5 | 2.7 | . | i | -0.1 | 3.7 | 64.1 | eIF4H FP inh retest=1.8;PABP polyA inh retest=9.4
COCCn1c(SCc2ccccc2Cl)nc2c1c(=O)[nH]c(=O)n2C | 1.6 | . | 0.9 | -32.0 | i | 5.6 | 2.9 | 0.6
Cc1ccc(F)cc1NC(=O)N1CCN(C2c3ccccc3-c3ccccc32)CC1 | -5.4 | -3.0 | 8.4 | . | i | 0.7 | 4.8 | -1.5
COc1cccc(Oc2ccc(N/C=C/C(=O)C(C)(C)C)cc2)c1 | -2.1 | 15.6 | -8.5 | -21.6 | i | 3.7 | -3.5 | -3.0
O=C(c1ncc[nH]1)c1ccccc1Cl | 4.4 | -0.5 | -3.6 | -5.8 | i | 6.2 | 4.7 | -5.0
CCOC(=O)C1(CCCc2ccccc2)CCN(C(=O)c2cc(C)nn2CC)CC1 | 12.8 | 12.2 | -3.3 | -4.1 | i | 1.1 | -8.0 | 8.5
CC(C)n1cc(CN2CCC(C(=O)Nc3ccc(Oc4ccccc4F)cc3)CC2)cn1 | -11.3 | 7.9 | -0.8 | -5.9 | i | 8.7 | -8.3 | -14.6
Cc1cc(C)c(S(=O)(=O)N2CCCC2=O)cc1N(C)S(C)(=O)=O | -10.9 | -0.2 | . | -13.4 | i | -2.0 | 0.5 | 11.4
COc1ccc(/C=C/C(=O)Nc2c(C)nn(C)c2C)cc1COc1ccc(Br)cc1 | 43.1 | -25.2 | 63.1 | -10.3 | i | 2.9 | 0.3 | 10.9
O=C(Cn1cccn1)N1CCCC(N2CCN(Cc3ccc4c(c3)OCO4)CC2)C1 (stereo not drawn) | 2.1 | 6.5 | . | -22.7 | i | 1.6 | -0.2 | 9.1
COc1ccc(CNS(=O)(=O)c2cccc(S(=O)(=O)N3CCOCC3)c2)cc1 | -9.5 | . | -4.6 | . | i | -6.2 | -3.0 | -1.3
O=c1cc(COc2ncnc3ccccc23)nc2sccn12 | 16.4 | -41.2 | 12.5 | -11.1 | i | -1.2 | 2.5 | 15.3
